Screening results as filed in PubChem BioAssay.
Rango complex inh: prevents formation of the Rango-importin beta complex | Q14974 | Rango CFP/YFP FRET sensor + importin beta, 45 min | Potency, µM (top dose mostly 92.2 µM), without a hit: at the highest dose inhibition of complex formation | 0.031% of 340,000 active; active = rising FRET ratio curve, often small or poorly fitted; inconclusive = mostly compound fluorescence or quenching in the first reads; inactive = flat curves in all reads;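 further: potency means the concentration at half of the fitted maximal effect; 0% = DMSO wells and 100% = buffer wells lacking importin beta; nearly all actives have a fitted effect of over 15% in size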
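FRET biosensor (snurportin 1 IBB flanked by EYFP and cerulean), 50 nM, with compound 5 min, then 0.125 microM importin beta in PBS, 1 mM DTT, 0.02% Tween-20, 0.1% BSA. CFP/YFP ratio read after 45 min at room temperature; pre-read flags interference.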
miR-21 reporter: miR-21 reporter, rising signal; HeLa miR-21 FLuc reporter, luciferase, 48 h; Potency, µM (titrated, usually from 38.3 µM), for inactives: at the highest dose reporter change, positive = more light; 340,000 tested, under 10 active; AID 2288; active = well fitted rising curve with a large enough effect; inconclusive = small, poorly fitted or top-dose-only effect; inactive = no such curve, though single readings can be large or run the other way;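 further: % of control where 0% means no effect; miR-21 action dims this reporter so a rising signal means less miR-21 action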
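HeLa cells endogenously expressing miR-21, stably carrying CMV-driven firefly luciferase with a downstream miR-21 binding site, 2000 cells/well. Titrations up to approximately 40 uM, 48 hours; luciferase luminescence read.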
GLA inh pH 4.5: inhibitors of human alpha-galactosidase A at pH 4.5 | activity change, negative = inhibition, % at 105 µM | P06280 | 230,000 tested, under 10 active | purified enzyme, 4-MU-alpha-Gal fluorescence, pH 4.5 | AID 1467; inconclusive = small, poorly fitted or top-dose-only inhibition, or a rising curve; inactive = flat fitted curve, though single readings scatter; no compound was filed as active;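 further: 0% = full activity with enzyme and -100% = basal without enzyme; dose as in the result columns while the protocol names 77 µM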
Target sequence (P06280 whole entry, looked up): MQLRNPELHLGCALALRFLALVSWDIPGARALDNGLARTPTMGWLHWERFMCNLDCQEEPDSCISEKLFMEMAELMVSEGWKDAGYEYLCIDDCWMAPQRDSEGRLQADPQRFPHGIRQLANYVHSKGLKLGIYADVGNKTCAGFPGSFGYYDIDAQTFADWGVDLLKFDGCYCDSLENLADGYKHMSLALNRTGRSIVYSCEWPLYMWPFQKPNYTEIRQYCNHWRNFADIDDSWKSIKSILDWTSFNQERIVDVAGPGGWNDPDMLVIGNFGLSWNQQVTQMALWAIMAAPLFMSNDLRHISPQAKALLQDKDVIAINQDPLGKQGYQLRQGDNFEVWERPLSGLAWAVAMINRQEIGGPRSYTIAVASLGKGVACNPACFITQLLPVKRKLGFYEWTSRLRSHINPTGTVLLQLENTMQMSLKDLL
Rango dissoc inh: prevents RanGTP from dissociating the Rango-importin beta complex. 0.071% of 340,000 active. O95149+P62826. Biochemical FRET Rango-importin beta, RanGTP-induced dissociation. Potency, µM (doses to about 46.1 µM), for the others: top-dose activity change, negative = inhibition; active means falling FRET ratio curve, often poorly fitted, with flat reads before Ran was added; inconclusive means other falling curves, or compound fluorescence or quenching; inactive means flat or rising ratio curve;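 further: potency means the concentration at half of the fitted maximal effect; % of control where 0% means no effect; nearly all actives have a fitted effect of over 45% in size; -100% = wells without RanGTP and RCC1; the record marks most hits as doubtful in a second field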
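FRET read at 45 min, room temperature: inhibitors block the CFP/YFP signal rise when RanGTP (0.6 uM Ran, 2 mM GTP, 0.2 uM RCC1) frees Rango (0.1 uM) from importin beta (0.25 uM). Pre-read after 5 min compound exposure flags interference.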
Starred values were filed as active, the others as inactive; ? = inconclusive; nt = no result given. These rows are one share of the data. The share of hits here may be higher or lower than overall.

SMILES	Rango complex inh	miR-21 reporter	GLA inh pH 4.5	Rango dissoc inh
CCN(CC)S(=O)(=O)c1ccc2c(c1)nc(SCC(=O)N(C)C1CCS(=O)(=O)C1)n2CC (stereo unspecified)	-0.2%	nt	nt	-18%
CS(=O)(=O)Nc1ccccc1N=C(c1ccccc1)c1ccccc1	0.4%	1%	nt	11%
Fc1cccc(CN(C2=NCCN2)c2c(Cl)cccc2Cl)c1	4.0%	nt	nt	-10%
COc1ccc(Oc2nc(-c3ccccc3)ncc2C(=O)O)cc1	0.6%	-2%	-8	-10%
COC(=O)c1ccccc1NC(=O)CCCn1nc([N+](=O)[O-])cc1C	-2.1%	-6%	3	-17%
C=CCn1c(COc2ccc(Cl)cc2)nnc1SCc1ccc(C#N)cc1	-3.1%	10%	4	-10%
O=C(CSc1nnc(NC(=O)C2CC2)s1)Nc1ccc(F)cc1	1.3%	-6%	0	4%
CN(C)S(=O)(=O)N1CCC(Oc2ccc(C(=O)NCCc3cscn3)cc2)CC1	-1.0%	4%	nt	-9%
CCCn1c(NC(=O)c2cccc(S(=O)(=O)N3CCCC3)c2)nc2ccccc21	-0.6%	?	1	4%
COc1ccc(C2C(C(N)=O)=C(C)Nc3nc(-c4cccc(Cl)c4)nn32)cc1OC (stereo unspecified)	2.5%	-14%	-17	-5%
Cc1ccc(S(=O)(=O)N2CCCCCC2)cc1C(=O)Nc1cccnc1	-3.5%	4%	nt	8%
CCN(CC)S(=O)(=O)c1cccc(NC(=O)CN2C(=O)NC3(CCC(C)CC3)C2=O)c1 (stereo unspecified)	0.4%	nt	nt	1%
OCCC1CN(Cc2ccc(F)cc2Cl)CCN1CCc1ccccc1 (stereo unspecified)	9.0%	-3%	nt	8%
COc1cccc(NC(=O)CSc2nnc(C3CCCCC3)n2N)c1	3.7%	nt	nt	-13%
CCCCn1c(N)c(N(CC(C)C)C(=O)c2cnccn2)c(=O)[nH]c1=O	-3.0%	nt	nt	9%
CO/N=C\Cc1oc(=O)c(NC(=O)c2ccccc2)cc1C(=O)OC	?	2%	-12	?
C=CCN=C(NC#N)SCC(=O)NCc1ccccc1	?	-5%	4	-15%
COc1ccc(/C=C(/Sc2nnc(-c3ccc(Cl)cc3)o2)C(=O)O)cc1	?	1%	-13	11%
Cn1c(SCC(N)=O)nnc1-c1ccc(S(=O)(=O)N2CCCC2)cc1	-0.7%	0%	nt	-6%
Cc1cc(C)c(OCC(=O)Nc2nnc(C3CC3)s2)c(C)c1	0.8%	nt	nt	8%
CC1CCN(C(=O)N[C@@H](Cc2ccccc2)C(=O)O)CC1	5.3%	-7%	-1	9%
COc1ccc(C(CCN)c2ccc3c(c2)OCO3)cc1 (stereo unspecified)	1.6%	-2%	nt	8%
CC(=O)NC1(NC(C)=O)CCN(C)CC1	?	-2%	-20	2%
COC(=O)c1ccc(CO/N=C2\CCCc3nonc32)cc1	0.0%	-48%	6	21%
CCC(C)(C)n1nnnc1C(C(C)C)N(CCCO)Cc1cc2cc(C)ccc2[nH]c1=O (stereo unspecified)	1.7%	-13%	2	13%

Whole records from above. Values in the order: Rango complex inh	miR-21 reporter	GLA inh pH 4.5	Rango dissoc inh
Record of CCC(C)(C)n1nnnc1C(C(C)C)N(CCCO)Cc1cc2cc(C)ccc2[nH]c1=O (stereo unspecified) = 1.7%	-13%	2	13%
Record of Fc1cccc(CN(C2=NCCN2)c2c(Cl)cccc2Cl)c1 = 4.0%	nt	nt	-10%

(cont.)
SMILES	Rango complex inh	miR-21 reporter	GLA inh pH 4.5	Rango dissoc inh
Cc1ccc(N2C(=O)N(CC(=O)Nc3ccc(C)cc3Cl)C(=O)C2C)cc1 (stereo unspecified)	-2.8%	nt	nt	3%
C/C(=N\NC(=O)c1ccn(C)n1)c1cccc(NC(=O)c2ccncc2)c1	3.6%	-28%	5	-3%
Cc1occc1C(=O)NNC(=O)C1CCCC1	-0.3%	-4%	1	-4%
COc1cc(OC)cc(C(=O)Nc2ccc(C(=O)NCC3CCCO3)cc2)c1 (stereo unspecified)	0.4%	-5%	nt	21%
CCC(=O)c1ccc(OCC(=O)OCC(=O)N2CCCc3ccccc32)cc1	-1.9%	nt	nt	2%
Cc1cc(C)c(NC(=O)CN2CCOCCOCCOCCOCC2)c(C)c1	2.4%	nt	nt	-11%
Cc1csc(NC(=O)c2ccc(N3CCCC3=O)cc2)n1	1.2%	20%	5	11%
COc1cccc(NC(=S)N2CCN(C)CC2)c1	0.7%	-3%	nt	5%
O=C(CNC(=O)c1ccc(Cl)cc1)c1ccc(Br)cc1	-4.3%	-6%	nt	-6%
CCCNc1c(NS(=O)(=O)c2ccc(C)cc2C)c(=O)oc2ccccc12	-0.7%	-5%	nt	-4%
CC(=O)CSc1cc(-c2ccccc2)nc2ncnn12	3.4%	-3%	-2	26%
CCOC(=O)CNS(=O)(=O)c1ccc2c3c(cccc13)C(=O)N2CC	?	4%	-11	?
O=C(C1CCC(CNS(=O)(=O)c2cccs2)CC1)N1CCN(c2ccc(F)cc2)CC1 (stereo unspecified)	3.3%	?	nt	6%
Fc1ccc(N/N=C/c2ccncc2)c(F)c1	-5.4%	-47%	-15	0%
N#Cc1ccccc1CSc1ccccn1	-4.7%	-23%	5	-8%
N#Cc1ccc(OCC(=O)OCC(=O)Nc2cc(C(F)(F)F)ccc2N2CCOCC2)cc1	?	-4%	1	19%
CC[C@@H]1C/C=C\Cc2ccccc2[C@@H](C(=O)C[C@H](O)CC(C)=O)OC1=O	-3.4%	nt	nt	-9%
Cc1ccc(S(=O)(=O)NCCNC(=O)c2cc(OCC(F)(F)F)ccc2OCC(F)(F)F)cc1	-2.5%	-9%	-1	4%
COc1ccc(/C=C/C(=O)NC(=S)NNC(=O)c2cnccn2)cc1	-0.5%	6%	-4	7%
O=[N+]([O-])c1ccccc1CCc1ccccc1[N+](=O)[O-]	0.1%	nt	nt	0%
Cc1cc(C)n(-c2ccc(C(=O)Nc3ccccc3N3CCOCC3)cc2)n1	2.4%	-4%	0	?
COc1ccccc1C(=O)Nc1ccc2c(c1)n(C)c(=O)n2C	2.2%	-11%	nt	8%
CN1C2CCC1/C(=C\c1ccccc1)C(=O)/C2=C\c1ccccc1	1.5%	-4%	-15	1%
CC1CCN(CC(=O)Nc2sc3c(c2C#N)CCC3)CC1	-3.2%	-8%	-3	-9%
COc1cc(C(=O)ON=C2C3CC4CC(C3)CC2C4)cc(OC)c1OC	-0.2%	?	nt	3%
Further entries follow.
SMILES	Rango complex inh	miR-21 reporter	GLA inh pH 4.5	Rango dissoc inh
Cc1ccc(-c2cc3nc(C)cc(NCc4ccco4)n3n2)cc1	?	-45%	2	?
CC(O)c1nc2ccccc2n1CCOc1ccccc1 (stereo unspecified)	-1.7%	-17%	2	1%
N#C/C(=C\c1cn[nH]c1-c1ccc(Cl)cc1)C(=O)NCc1ccccc1	-1.2%	3%	-5	-15%
CSc1ccccc1OCc1cc(C(=O)N(C)CCc2c(C)n[nH]c2C)no1	1.0%	-10%	nt	-7%
CCCn1c(SCC(=O)NNC(=O)c2ccc(OC)cc2)nnc1C(C)C	-2.5%	-2%	nt	4%
Cc1nn(C)c(C)c1NS(=O)(=O)c1c(C)n[nH]c1C	-1.2%	nt	nt	-11%
Cc1ccc(NC(=O)CNCC(c2ccccc2)N(C)C)cc1F (stereo unspecified)	-0.4%	-2%	9	10%
Cc1ccc(C(=O)NNC(=O)c2csc(N3CCOCC3)n2)o1	-1.1%	nt	nt	-6%
CC1(C(=O)NNC(=O)c2ccc(=O)oc2)CC1Br (stereo unspecified)	?	-6%	-4	?
O=C(OCCNc1nc(-c2ccccc2)nc2ccccc12)c1ccncc1	3.6%	1%	-4	13%
CCCCn1c(N)c(N(CCC(C)C)C(=O)CC2OC(=O)c3ccccc32)c(=O)[nH]c1=O (stereo unspecified)	-1.3%	nt	nt	2%
COc1cccc(N2CCN(S(=O)(=O)c3c(C)[nH]c(C)c3C(=O)N3CCCC3)CC2)c1	-2.5%	-10%	nt	-5%
O=C(Nc1nncs1)c1ccc2c(c1)OCO2	0.4%	-26%	nt	2%
O=C(Nc1ccc2ccccc2n1)C1CCCCC1	0.8%	-32%	-3	-6%
Cc1ccc2sc(N(CCCN(C)C)C(=O)c3ccc(S(=O)(=O)N4CCCCCC4)cc3)nc2c1C	1.5%	nt	nt	0%
CC1=C(C(=O)OCc2ccccc2)C(c2cccnc2)c2c(n(C)c(=O)n(C)c2=O)N1 (stereo unspecified)	?	-1%	-18	?
CC12CC3(C)CC(C)(C1)CC(C(=O)NCc1ccccn1)(C2)C3	0.1%	2%	0	1%
N#CCCN(C(=O)CN1CCN(S(=O)(=O)c2ccc(Cl)s2)CC1)c1ccc(F)cc1	1.2%	nt	nt	-3%
COC(=O)COc1cc(Cl)c(C=O)cc1OC	6.7%	-3%	2	-4%
Cc1cc(C)c(S(=O)(=O)Nc2cccc3nsnc23)c(C)c1	10%	-1%	-10	1%
COc1cccc(CNC(=O)C2CCN(S(=O)(=O)c3ccc4c(c3)NC(=O)CO4)CC2)c1	6.7%	5%	nt	23%
CCOC(=O)c1cnc(SC)nc1Oc1cccc(NC(=O)c2ccc(Cl)cc2)c1	-2.2%	-1%	0	-1%
COc1ccc(-c2nc(C(=O)NCC3CCCO3)cc3c2[nH]c2ccccc23)cc1 (stereo unspecified)	-1.1%	21%	nt	1%
O=C(N[C@@H]1C/C=C\C[C@@H](CC(=O)N(CCO)Cc2ccccc2)C(=O)N[C@H](Cc2ccccc2)COC1=O)OCC1c2ccccc2-c2ccccc21	-7.8%	nt	nt	?
CCC(=O)Nc1ccc(C(=O)CSc2nc3ccc(C)cc3[nH]2)cc1	-3.1%	-31%	-2	5%

Quoted at random: 7 records from the list, in no set order.
SMILES	Rango complex inh	miR-21 reporter	GLA inh pH 4.5	Rango dissoc inh
Cc1ccc(NC(=O)CNCC(c2ccccc2)N(C)C)cc1F (stereo unspecified)	-0.4%	-2%	9	10%
Cc1ccc2sc(N(CCCN(C)C)C(=O)c3ccc(S(=O)(=O)N4CCCCCC4)cc3)nc2c1C	1.5%	nt	nt	0%
O=C(Nc1nncs1)c1ccc2c(c1)OCO2	0.4%	-26%	nt	2%
CCCn1c(SCC(=O)NNC(=O)c2ccc(OC)cc2)nnc1C(C)C	-2.5%	-2%	nt	4%
CC1=C(C(=O)OCc2ccccc2)C(c2cccnc2)c2c(n(C)c(=O)n(C)c2=O)N1 (stereo unspecified)	?	-1%	-18	?
COc1ccc(-c2nc(C(=O)NCC3CCCO3)cc3c2[nH]c2ccccc23)cc1 (stereo unspecified)	-1.1%	21%	nt	1%
CCCCn1c(N)c(N(CCC(C)C)C(=O)CC2OC(=O)c3ccccc32)c(=O)[nH]c1=O (stereo unspecified)	-1.3%	nt	nt	2%

Further records follow.
SMILES	Rango complex inh	miR-21 reporter	GLA inh pH 4.5	Rango dissoc inh
Cc1ccc(C(=O)CCNc2ccc(Br)cc2)o1	-1.7%	-28%	9	-17%
CCn1c(=O)c(=O)n(CC)c2cc(S(=O)(=O)Nc3cccc(OC)c3)ccc21	-0.3%	-3%	0	-13%
CC(OC(=O)c1cccc(-n2cnnn2)c1)c1nc2ccccc2c(=O)[nH]1 (stereo unspecified)	2.4%	nt	nt	-11%
CC(=O)c1cnn(-c2cc(Oc3ccc(F)cc3)ncn2)c1C	8.6%	-2%	2	6%
CC1(C)CSC(=NCc2ccccc2)N1C(=O)c1cccc([N+](=O)[O-])c1	1.8%	-13%	1	-10%
CCC(=O)c1ccc(OCC(=O)NCCc2ccccn2)cc1	-2.2%	-1%	-6	20%
COc1ccc(S(=O)(=O)N2CCOCC2)cc1NC(=O)/C=C/c1ccc(F)cc1	0.6%	nt	nt	-3%
CCC(NC(=O)c1cc(COc2ccc(F)cc2Cl)on1)c1ccncc1 (stereo unspecified)	-2.3%	10%	nt	0%
CCOC(=O)C1(Cc2ccccc2Cl)CCN(C(=O)c2cnccn2)CC1	-0.1%	-57%	0	1%
O=C(Nc1ccc(Cl)cc1F)C1CC(=O)N(Cc2ccco2)C1 (stereo unspecified)	?	nt	nt	-4%
CC(=O)c1sc(NC(=O)c2cccc(C)c2)nc1C	-2.0%	-39%	-6	-16%
COCCNCC(=O)NC12CC3CC(CC(C3)C1)C2	-0.1%	-9%	3	-11%
COc1cc(N=c2ssnc2Cl)cc(OC)c1OC	1.9%	29%	4	-12%
